# Screening results from PubChem BioAssay.
# HPGD block: qHTS Assay for Inhibitors of HPGD (15-Hydroxyprostaglandin Dehydrogenase); hit rate 4.3% among 150,000; purified HPGD, NADH fluorescence kinetic, PGE2 substrate; Potency, µM, without a hit: top-dose activity change, negative = inhibition, most hits filed as inhibitors; active = well fitted inhibition curve with a large enough effect (not every such curve was filed as active); inconclusive = small, poorly fitted or top-dose-only effect, or another doubt; inactive = no such curve, though single readings can be large or run the other way;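 also: top concentration of the series not given in the record; plate controls included wells without enzyme; inactives centre near -10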
# Target sequence (P15428 whole entry, looked up): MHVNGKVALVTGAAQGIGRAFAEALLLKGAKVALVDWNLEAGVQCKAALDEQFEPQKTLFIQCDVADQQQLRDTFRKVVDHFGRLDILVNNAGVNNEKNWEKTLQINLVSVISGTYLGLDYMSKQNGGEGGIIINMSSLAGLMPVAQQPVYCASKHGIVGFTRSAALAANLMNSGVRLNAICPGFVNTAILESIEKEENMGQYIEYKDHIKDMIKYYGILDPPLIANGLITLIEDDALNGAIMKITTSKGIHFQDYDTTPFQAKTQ
#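 NADH formation kinetics: reaction with 30 uM PGE2 and 1 mM NAD+ (final), 20 nM enzyme, Tris-HCl pH 8 with Tween 20, after 15 min compound preincubation at room temperature. Fluorescence change, last versus first of five reads.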
# * = called active by the depositor; ? = inconclusive; & = joins results of further samples; [ ] = remark or other dose. % is scaled to controls: 0 for no effect and ±100 for the full control effect; potency is read from the fitted curve at half-maximal effect.
HPGD block | Molecule
-15.0% | CCOC(=O)C(C)n1cnc2c(cnn2-c2ccc(Cl)cc2)c1=O (centres undefined)
-11.6% | CCOC(=O)c1sc(NS(=O)(=O)c2ccccc2)nc1C
? | Cn1c(C(=O)N2CCN(C(=O)c3ccco3)CC2)cc2c(=O)n3ccccc3nc21
-6.5% | CCCC(=O)N(c1ccc(OC)cc1)C1C=CS(=O)(=O)C1 (centres undefined)
-5.9% | CCCCNC(=O)C1CC(=O)N(CCC(C)C)C1 (centres undefined)
? | N#C/C(=C\c1cccc(Oc2ccc(C(F)(F)F)cc2[N+](=O)[O-])c1)c1nc2ccccc2[nH]1
-4.4% | COC(=O)[C@H](COC(C)(C)C)NC(=O)O[C@@H]1C(=O)c2cc(OC)ccc2O[C@H]1c1cccc(OC)c1
14.1µM* | COc1cc(/C=N/O)cc(Br)c1OCC(=O)NCc1ccccc1
-19.9% | COc1cccc(CNc2ncc(Br)cc2Br)c1O
-22.5% | CN(Cc1ccccc1)C(=O)COC(=O)c1ccccc1NS(=O)(=O)c1cccc(N)c1
-10.2% | Cc1cc(C(=O)OCC(=O)Nc2ccc(F)cc2[N+](=O)[O-])c2ccccc2n1
? | O=C(c1ccc2nc3ccccc3c(=O)n2c1)N1CCN(Cc2ccc3c(c2)OCO3)CC1
-8.3% | C=C(C(=O)c1ccccc1)C(c1ccccc1)C(C)C(=O)c1ccccc1 (centres undefined)
48.1%[activator] | COc1ccccc1/C=C1\SC(=O)N(CCC(=O)NNC(=O)c2ccccc2Cl)C1=O
? | CCCCn1c(NC(=O)c2ccc(Br)o2)c(S(=O)(=O)c2ccccc2)c2nc3ccccc3nc21

# As entered above:
# Entry for `CN(Cc1ccccc1)C(=O)COC(=O)c1ccccc1NS(=O)(=O)c1cccc(N)c1` under HPGD block: -22.5%
# Entry for `COc1ccccc1/C=C1\SC(=O)N(CCC(=O)NNC(=O)c2ccccc2Cl)C1=O` under HPGD block: 48.1%[activator]
# Entry for `C=C(C(=O)c1ccccc1)C(c1ccccc1)C(C)C(=O)c1ccccc1` (centres undefined) under HPGD block: -8.3%
# Entry for `CCCCNC(=O)C1CC(=O)N(CCC(C)C)C1` (centres undefined) under HPGD block: -5.9%

# Next part.
HPGD block | Molecule
-6.8% | COc1ccccc1NC(=O)c1[nH]c(C)c(C(C)=O)c1C
? | Cc1cccc(-n2cc[nH]c2=S)c1
-6.1% | Cc1occc1-c1nnc(SCC(=O)N2CCN(c3ccccc3F)CC2)n1C
-12.9% | CNS(=O)(=O)c1cc(O)c2c(S(=O)(=O)NC)cccc2c1
? | CC1(C)CC(n2c(NCCO)nc3c(c2=O)C2(CCCC2)Cc2ccccc2-3)CCO1 (centres undefined)
-17.4% | Cc1[nH]c2ccccc2c1C(c1ccncc1)N1CCN(c2ccccc2F)CC1 (centres undefined)
-12.9% | Cc1nc(-c2ccc(Br)cc2)ccc1C(=O)O
-18.5% | CCOC(=O)C1=C(Nc2ccccc2)CC(C)(O)C(C(=O)OCC)C1c1ccc(Br)cc1 (centres undefined)
-16.8% | CC(C)NS(=O)(=O)c1cccc2nsnc12
-4.4% | Cc1cc(C)n(C(=O)CCC(=O)Nc2ccc(C)c(C)c2)n1
-10.9% | O=C(NCc1cccnc1)c1nnc(Cc2ccc(F)cc2)o1
? | COc1ccc(C(=O)c2ccc(Cl)c([N+](=O)[O-])c2)cc1
-12.6% | Clc1ccc(CSc2nnc3ccccn23)c(Cl)c1
-8.2% | CCOC(=O)c1sc(NC(=O)CSc2nnnn2-c2ccccc2)nc1C
-9.7% | CC(=O)N/C(=C\c1cccc([N+](=O)[O-])c1)C(=O)NC1CCCCC1

# 5 compounds from above, sorted by the number in HPGD block, low to high.
HPGD block | Molecule
-18.5% | CCOC(=O)C1=C(Nc2ccccc2)CC(C)(O)C(C(=O)OCC)C1c1ccc(Br)cc1 (centres undefined)
-12.9% | Cc1nc(-c2ccc(Br)cc2)ccc1C(=O)O
-12.6% | Clc1ccc(CSc2nnc3ccccn23)c(Cl)c1
-11.6% | CCOC(=O)c1sc(NS(=O)(=O)c2ccccc2)nc1C
-9.7% | CC(=O)N/C(=C\c1cccc([N+](=O)[O-])c1)C(=O)NC1CCCCC1

# Next results
HPGD block | Molecule
14.1µM* | CCC(C)(C)c1ccc(Oc2ccc(NC(=O)COC(=O)C3=COCCO3)cc2)cc1
-10.9% | COC(=O)N[C@@H](CCc1ccccc1)[C@]1(C(C)=O)CCCC1=O
-6.3% | CCC(=O)Nc1ccc(S(=O)(=O)NCCc2ccccc2)cc1
-14.1% | CC1CCCCN1S(=O)(=O)c1ccc(C(=O)Nc2nnc(-c3cccs3)o2)cc1 (centres undefined)
-9.2% | Nn1cc(-c2ccccc2)nc1SCC(=O)N1CCN(S(=O)(=O)c2ccc(Cl)cc2)CC1
-10.6% | O=c1c(-c2cc3ccccc3o2)[n+]([O-])c2ccccc2n1OCc1ccccn1
-14.1% | Cc1nc(NCC2CCCO2)nc2c1C(=O)CC(C)C2 (centres undefined)
-11.6% | Cc1nc(SCc2ccc(F)cc2)c([N+](=O)[O-])[nH]1
-9.7% | CC(C)CC(=O)N[C@H](C(=O)N[C@H](C(=O)N[C@@H](CC(C)C)[C@H](O)CC(=O)N[C@@H](C)C(=O)N[C@@H](CC(C)C)[C@H](O)CC(=O)O)C(C)C)C(C)C
-14.6% | NC(=O)c1ccsc1NC(=O)CSc1ccccc1F
-12.6% | CN(NC(=O)c1ccc(Cl)cc1)c1nc(-c2ccccc2)nnc1C(F)(F)F
-5.7% | CCN(CC)c1nc(N)nc(NS(=O)(=O)c2ccc(Cl)cc2)n1
-18.9% | CCOCCCNC(=O)Cn1cc2c(n1)CCCC2
5.01µM* | O=C(CSCc1c(Cl)cccc1Cl)NCC1CCCO1 (centres undefined)
-7.8%&-18.4%&-13.5%&-2.3%&-0.6% | Cc1ccc(Cl)c(Nc2ccccc2C(=O)O)c1Cl

HPGD block | Molecule
? | CC1=C(C(=O)OC2CCCCCC2)C(c2ccc(C)o2)C2=C(CCCC2=O)N1 (centres undefined)
? | COc1cc(OC)c(C2=NOC(C(=O)N3CCCc4ccccc43)C2)cc1Cl (centres undefined)
? | CSc1ccc(Cl)c(C(=O)OCC(=O)NCc2ccco2)c1
-5.0% | COc1cc(NC(=O)C/C(C)=N/NC(=O)C(OC)c2ccccc2)c(OC)cc1Cl (centres undefined)
? | Cc1c(-c2nc(N)nc(Nc3ccccc3F)n2)oc2ccccc12
-17.6% | Cn1c(=O)c2ncn(CC(=O)NCCOc3ccc(C(C)(C)C)cc3)c2n(C)c1=O
? | COc1ccc(-n2c(-c3ccccc3)cc3c2CCCC3=O)cc1
-9.1% | COc1cccc2c1C(=O)c1c(O)c3c(c(O)c1C2=O)C[C@](O)(C(C)=O)C[C@H]3O[C@@H]1C[C@H](N)[C@H](O)[C@H](C)O1
? | CCN1CCCC1Cn1cnc2c([nH]c3ccc(C)cc32)c1=O (centres undefined)
-11.7% | Nn1c(SC/C=C/c2ccccc2)nnc1-c1ccco1
-19.0% | C=CCNC(=O)NC(=O)CSc1nc2cc([N+](=O)[O-])ccc2n1-c1cccc(C(F)(F)F)c1
-4.0% | CCCOC(=O)C1C2C=CC3(CN(c4ccc(Cl)c(F)c4)C(=O)C13)O2 (centres undefined)
-9.6%&-0.7% | COc1ccccc1N1CCN(CCN2C(=O)CC3(CCCC3)CC2=O)CC1
-9.6% | O=C(Nc1cccnc1)c1ccc(F)cc1
? | Cc1onc(-c2ccccc2)c1C(=O)Nc1nnc(-c2ccncc2)s1

HPGD block | Molecule
-12.4% | O=C(N/N=C/c1ccccc1OC(=O)c1ccc2c(c1)OCO2)c1ccccc1
? | O=c1oc2cc(O)ccc2cc1-c1ccc2c(c1)OCCO2
? | Cc1cc(-c2ccccc2)[nH]c(=O)c1S(=O)(=O)c1ccccc1
? | Cc1cc(=O)c2ccc3ccccc3c2[nH]1
-9.4% | O=C(O)CSCc1cccc2ccccc12
25.1µM* | CCc1nc2oc3ccccc3c(=O)c2c(=O)n1Cc1ccc(OC)cc1
-5.5% | O=C(NC1(C(F)(F)F)C(=O)Nc2c1c(=O)[nH]c(=O)n2Cc1ccco1)C1CCCCC1 (centres undefined)
-2.7% | CCn1c(COc2ccccc2C)nnc1SCC(=O)N1CCC(C)CC1
-9.1% | CC12CCC(C(=O)N(c3ccccn3)c3ccccn3)(OC1=O)C2(C)C (centres undefined)
-3.9% | CC(=O)Nc1cc(Cl)ccc1OS(=O)(=O)c1ccc(C)cc1
-16.6% | Cc1cc(N(C)Cc2ccccc2)nc(-c2ccccc2)n1
-3.2% | COC(=O)C1C(=O)C2=C(CC1C)NC(=O)CC2c1cccc(C)c1 (centres undefined)
-12.3% | Cc1cccc(C)c1NC(=O)N1CCN(C2CCCCC2)CC1
-6.7% | Cc1ccccc1Oc1ncnc2sccc12
-22.5% | Oc1ccc(N=Nc2n[nH]c(-c3ccccc3)n2)cc1

HPGD block | Molecule
-19.0% | CCc1ccc(-c2nnn(Cc3nc4ccccc4s3)n2)cc1
-13.5% | COc1cccc(-c2nc(CS(=O)CC(=O)NC3CCCC3)c(C)o2)c1 (centres undefined)
-5.4% | Nc1c(Cl)cc(NC(=O)c2ccccc2C(=O)O)cc1Br
5.1% | CN1C(=O)CC(N2CCN(c3ccc(Cl)c(Cl)c3)CC2)C1=O (centres undefined)
-13.6% | COc1ccc(NC(=O)Nc2ccc(Cc3ccncc3)cc2)cc1OC
-3.0% | Cc1ccc(NC(=O)Cn2c(=O)n(Cc3ccco3)c(=N)c3c4c(sc32)COC(C)(C)C4)cc1
? | O=C(NCc1ccco1)c1nc2nc(-c3cccs3)cc(C(F)(F)F)n2n1
-10.5% | O=C(Nc1cccc(Cl)c1)Nc1nc(-c2ccc(Cl)cc2)cs1
-11.0% | Cc1ccc(C)c(NC2=CC(=O)CC(C)(C)C2)c1C#N
-14.5% | CCOC(=O)CN1C(=O)C(Sc2n[nH]c(-c3ccccc3)n2)CCc2ccccc21 (centres undefined)
-8.0% | Cc1ccc(S(=O)(=O)NC2CCCCC2)cc1
-7.4% | COc1ccc(Cn2c(=O)oc3ccc(C)cc32)cc1OC
-28.2% | C=CCOn1c(=O)c(-c2ccc(OC)c(OC)c2)[n+]([O-])c2ccccc21
-22.8% | Cc1cccc(NC(=O)C2CCN(S(=O)(=O)c3c(C)noc3/C=C/c3ccco3)CC2)n1
-5.5% | Nc1nc(SCC(=O)Nc2cc(-c3ccccc3)nn2-c2ccccc2)n[nH]1

HPGD block | Molecule
-7.6% | O=c1cc(N2CCOCC2)c2ccccc2o1
-19.6% | CCc1ccccc1NCC(=O)Nc1ccc(Cl)c(C(F)(F)F)c1
-2.8% | CNC(=O)CN(c1ccc(OC)cc1)S(=O)(=O)c1ccc(F)cc1
-16.6% | C=CCn1c(C)cc(C(=O)CSc2nc3ccccc3o2)c1C
-4.8% | C=C(C)C1CC=C(CO)CC1 (centres undefined)
-8.1% | O=C(NNC(=O)c1ccccc1-n1cccc1)c1ccc(Cl)cc1Cl
0.0% | Cc1ccc(-c2cc(C(=O)NCc3ccc4c(c3)OCO4)no2)cc1
-21.3% | COc1ccc(S(=O)(=O)N(C)CC(=O)Nc2ccccc2SC)cc1Cl
-18.1% | CC(=O)c1ccc(C#CC(C)(C)O)s1
-7.7% | CCn1ncc(C(=O)Nc2ccccc2C)c1C
-4.3% | CCOC(=O)COc1c(Cl)cc(C2NC(=S)NC(c3ccccc3)=C2C(C)=O)cc1OC (centres undefined)
-25.6% | Fc1ccccc1OCCCCSc1ncccn1
-4.7% | C[C@@H](NC(=O)C1(N)CCCC1)C(=O)O
-4.3% | O=C(O)c1oc(C(=O)O)c(C(=O)O)c1C(=O)O
-1.0% | Cc1ccc(-n2c(Cc3cccs3)nnc2SCC(=O)Nc2ccc(S(N)(=O)=O)cc2)cc1

HPGD block | Molecule
-2.0% | Cc1ccc(-c2nnn(CC(=O)N(CC(=O)NCC3CCCO3)c3ccc(F)c(Cl)c3)n2)o1 (centres undefined)
-15.4% | O=C(Nc1nncs1)c1ccc(Br)c(S(=O)(=O)N2CCCC2)c1
? | COc1ccc2cc(C#N)c(NC(C)C)nc2c1
-13.2% | CCn1c(SCC(=O)Nc2nc3ccccc3s2)nnc1-c1ccc(OC)cc1
0.8% | O=C(CCN1C(=O)c2ccncc2C1=O)Nc1ccc(F)cc1
-8.4% | CCCC12CN3CC(CCC)(CN(C1)C3C(O)C(O)C(O)CO)C2=O (centres undefined)
-0.9% | CCOC(=O)c1c(-c2ccccc2)nc2c(C)cccn12
-5.5% | O=C(COC(=O)c1cccc(S(=O)(=O)N2CCN(c3ccccc3)CC2)c1)NCc1ccco1
28.2µM* | CCOC(=O)N1CCN(S(=O)(=O)c2ccc(OCC)c3ccccc23)CC1
-4.9% | C=CCOC(=O)C1=C(C)Nc2nnnn2C1c1ccc(OC)cc1OC (centres undefined)
? | COc1ccc(-c2nc(Cn3c(SCc4ccc(C)cc4)nc4ccncc43)c(C)o2)cc1OC
-3.1% | O=C(Nc1c(Cl)ccc2nsnc12)c1cccnc1
12.6µM* | O=C(COC(=O)Cc1c(Cl)cccc1Cl)NCCC1=CCCCC1
-9.8% | COc1ccnc(Oc2ccccc2)c1C#N
? | COc1ccc(-c2cc(C(=O)OCC(=O)Nc3ccc4c(c3)OCO4)c3ccccc3n2)cc1

HPGD block | Molecule
28.2µM* | O=C(C(Cc1ccccc1)n1cccc1)N1CCCCCC1 (centres undefined)
-10.8% | CCc1ccc(N2C(=O)CC(N(CC3CCCO3)C(=O)/C=C/C(=O)O)C2=O)cc1 (centres undefined)
-1.3% | CCCn1c(CNS(=O)(=O)c2ccc(C)cc2)nc2ccccc21
-10.4% | CC(C)N(C(=O)COC(=O)[C@@H]1CC(O)CN1S(=O)(=O)c1ccccc1[N+](=O)[O-])C(C)C (some centres undefined)
-13.9% | COc1ccc(NC(=S)N(CCc2c(C)[nH]c3ccccc23)Cc2ccco2)cc1
-12.8% | COCCN1C(=O)c2cc(C(=O)Nc3ccc(C)c(F)c3)ccc2C1Nc1ccc(C)c(F)c1 (centres undefined)

# Some of the compounds tested (hit frequency here may not be typical).
